CSM14.1 death rescue – rescue of cells from ER stress-induced death, primary screen, 384-well, CSM14.1, thapsigargin, ATP luminescence (AID 1222) | CSM14.1 thapsigargin-induced death rescue, ATP luminescence; higher % means a stronger effect | cellular ATP content (survival), % at 20 µM, or EC50 in µM where a hit was titrated | 190,000 tested, under 10 active;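 active = EC50 below 50 µM in the dose-response confirmation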;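 also: death triggered by thapsigargin at about 15 µM added after 2 h compound pretreatment; cell ATP read after overnight thapsigargin exposure of roughly 18 to 22 hours; normalized against plate controls of thapsigargin alone and 5% DMSO vehicle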
NTR1 agonist – agonists of NTR1, primary screen, imaging, U2OS cells, beta-arrestin-GFP, high content (AID 493036); NTR1-U2OS beta-arrestin-GFP spot imaging, agonist mode; activation, % at 20 µM; hit rate 0.17% among 330,000;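 active = activation at or above 40% of the spot to cytoplasm intensity ratio, with at least 20 cells analyzed; inconclusive = wells under 20 cells, flagged as cytotoxic or low count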;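 also: 0% = DMSO without peptide and 100% = 100 nM NTR1 peptide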
Target sequence (P30989 whole entry, looked up): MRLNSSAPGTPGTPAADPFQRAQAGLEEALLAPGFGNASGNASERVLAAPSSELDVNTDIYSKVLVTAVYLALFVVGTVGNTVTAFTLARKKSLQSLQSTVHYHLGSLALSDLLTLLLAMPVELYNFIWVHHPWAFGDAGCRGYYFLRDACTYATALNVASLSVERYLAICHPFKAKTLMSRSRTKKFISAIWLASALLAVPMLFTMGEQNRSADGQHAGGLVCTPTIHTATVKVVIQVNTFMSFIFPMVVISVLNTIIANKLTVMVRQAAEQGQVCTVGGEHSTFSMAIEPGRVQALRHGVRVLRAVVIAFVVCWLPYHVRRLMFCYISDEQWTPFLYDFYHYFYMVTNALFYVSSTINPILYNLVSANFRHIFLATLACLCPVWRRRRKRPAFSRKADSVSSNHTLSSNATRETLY
GPR55 activation – selective activators of receptor GPR55 – imaging, U2OS cells, beta-arrestin-GFP redistribution, primary screen (AID 1961); U2OS GPR55 beta-arrestin-GFP redistribution imaging; higher % means a stronger effect; activation, % at 10 µM; hits with a dose series show EC50 in µM; hit rate 0.048% among 290,000;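 active = activation above 40% with more than 50 cells counted in the well; inconclusive = wells holding fewer than 50 cells, flagged as toxic or sparse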;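 also: U2OS osteosarcoma cells stably expressing GPR55 and beta-arrestin-GFP; plate controls were DMSO negative control for no effect and LPI positive control for full effect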
KOR beta-arrestin – KOR agonists, beta-arrestin recruitment, primary screen, cell-based, luminescence, uHTS (AID 1777). KOR beta-arrestin recruitment, luminescence; higher % means a stronger effect. activation, % at 10 µM, or EC50 in µM where a hit was titrated. hit rate 0.02% among 280,000; in the data active = activation above about 50%, passing the limit was not always enough; also: a part of the inactive calls stands beside numbers as strong as those of hits
TNAP activators – stimulation of alkaline phosphatase TNAP activity – biochemical, luminescent, no phosphate acceptor, uHTS, primary screen (AID 1001); purified TNAP, luminescent activation assay, no phosphate acceptor; higher activation fold means a stronger effect; activation fold at 20 µM; hits with a dose series show EC50 in µM; hit rate 0.03% among 200,000; in the data active = activation fold from about 3, or a potency from the dose series; inactive = the rest, 99 in 100 with activation fold below about 1.6; also: many of its hits are not listed in these tables
Yfh1-off respiration – mitochondrial function rescue without frataxin homolog – Friedreich's ataxia, plus single-dose screen, dose response (AID 1465). S. cerevisiae Yfh1-off respiration, WST-1 reduction, 72 h; higher fold induction means a stronger effect. fold induction at 50 µM, or EC50 in µM where a hit was titrated. hit rate 0.074% among 220,000;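 active = fold induction of absorbance versus untreated yeast above a set limit, then at least 30% activation at any dose in follow-up; inconclusive = repeats straddling the limit, or above it without dose testing; inactive = fold induction below the set limit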;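 also: activators that raise dye reduction in frataxin-depleted yeast; strong numbers were not always called active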
NTR1 agonist cell count 20 µM – also measured in NTR1 agonist; calls as there; cell count; measured here: cell count, cytotoxicity flag
* hit, by the source's call; i = inactive; ? = inconclusive; . = no result given.

SMILES	CSM14.1 death rescue	NTR1 agonist	NTR1 agonist cell count 20 µM	GPR55 activation	KOR beta-arrestin	TNAP activators	Yfh1-off respiration
Cc1cc(CSc2ccccc2)ccc1NC(=O)c1cccc([N+](=O)[O-])c1	0.0%	4.6	51	0.6%	0.9%	1.1	i
O=C(CN1C(=O)C2C3C=CC(C3)C2C1=O)Nc1ccc(C(=O)O)cc1 (configuration not stated)	-1.0%	2.6	79	0.2%	11%	1.1	i
O=C(O)C1C2C=CC(C2)C1C(=O)NCCC1=CCCCC1 (configuration not stated)	-1.8%	-1.6	60	0.3%	6.1%	1.1	i
O=C(COc1ccc(OCc2ccccc2)cc1)NC1CCOC1=O (configuration not stated)	-0.4%	5.4	55	-0.1%	5.3%	1	i
CCNc1nc(NCC)nc(N(C)N)n1	1.5%	-0.6	79	0.0%	-2.2%	1	i
CCOC(=O)CCCNC(=O)c1cncc(Br)c1	-2.7%	-2.2	90	0.3%	1.1%	1	i
FC(F)(F)c1cccc(Oc2nc(-c3ccccc3)nnc2C(F)(F)F)c1	-5.6%	2.3	73	4.6%	2.1%	1	?
COc1cccc(C(=O)N/N=C/c2cn[nH]c2-c2ccc(OC)cc2OC)c1	0.0%	-0.4	62	0.0%	2.6%	1.1	i
O=C(Nc1ccsc1C(=O)NC1CCCCC1)c1ccc(F)cc1	-1.2%	9.5	76	0.0%	2.7%	1	i
O=C(O)c1cc(S(=O)(=O)NCC2CCCO2)ccc1Cl (configuration not stated)	-1.2%	9.7	73	-0.1%	2.6%	1.1	i
CCOC(=O)C1=C(C)N(CC(C)C)C(=O)/C1=C\c1ccc(OCC(=O)Nc2ccccc2)cc1	-0.5%	3.2	72	2.0%	1.1%	1	i
Nc1nc(N2CCOCC2)cc(=O)[nH]1	6.1%	0.0	47	-0.1%	4.0%	1.1	.
COc1ccc(NC(=O)c2cn(-c3ccccc3)nc2-c2cc3ccccc3o2)cc1	0.2%	6.1	46	-0.1%	-1.0%	1.1	i
CC(C)(C)NC(=O)C1Cc2ccccc2CN1C(=O)Nc1ccccc1Cl (configuration not stated)	5.4%	-2.3	26	0.3%	-1.0%	1.1	i
CCCn1nc2cc(C(=O)NCc3ccc(OC)cc3)ccc2c1OCC	-0.7%	0.4	83	-0.1%	5.6%	1.1	i
O=C(O)CSc1ccccc1C(=O)O	-0.3%	0.2	88	0.3%	1.4%	1.2	i
Cc1cc(C)n(-c2nc3c(c(=O)[nH]c(=O)n3C)n2C(C)C)n1	-4.4%	-0.7	42	-0.1%	10%	1.1	i
Cc1ccc2nc(NC(=S)NC(=O)c3cccs3)sc2c1	-0.4%	-1.3	43	1.4%	13%	1	i
Cc1ccc(C(=O)C(OC(=O)CCC(=O)Nc2cccc(C)c2)c2ccccc2)cc1 (configuration not stated)	4.1%	1.2	96	0.2%	9.4%	1	i
CCOc1c(Cl)cc(Cl)cc1CNCCNCCO	-1.6%	0.9	69	-0.1%	4.7%	0.9	i
CCCCNC(=O)COC(=O)c1cc(F)c(F)cc1Cl	-0.6%	-0.1	51	0.4%	0.9%	1.1	i
CCN(C(=O)Cc1ccccc1OC)c1nnc(-c2ccncc2)s1	1.4%	-0.4	56	0.2%	1.2%	1.1	i
O=C(Nc1cccc(C(F)(F)F)c1)C1CCCN(S(=O)(=O)c2cnc[nH]2)C1 (configuration not stated)	-2.4%	-0.4	70	-0.1%	0.7%	1	i
O=c1[nH][nH]c(C(F)(F)F)c1C=Nc1ccc(Cl)cc1	2.9%	-0.3	81	-0.1%	5.4%	0.9	i

A second format for some results above.
Each structure is followed by: CSM14.1 death rescue | NTR1 agonist | NTR1 agonist cell count 20 µM | GPR55 activation | KOR beta-arrestin | TNAP activators | Yfh1-off respiration
Cc1cc(C)n(-c2nc3c(c(=O)[nH]c(=O)n3C)n2C(C)C)n1
  -4.4% | -0.7 | 42 | -0.1% | 10% | 1.1 | i
CCCn1nc2cc(C(=O)NCc3ccc(OC)cc3)ccc2c1OCC
  -0.7% | 0.4 | 83 | -0.1% | 5.6% | 1.1 | i
CCN(C(=O)Cc1ccccc1OC)c1nnc(-c2ccncc2)s1
  1.4% | -0.4 | 56 | 0.2% | 1.2% | 1.1 | i

Later entries
SMILES	CSM14.1 death rescue	NTR1 agonist	NTR1 agonist cell count 20 µM	GPR55 activation	KOR beta-arrestin	TNAP activators	Yfh1-off respiration
Cc1ccc(CNc2ccc(O)cc2)cc1	.	-2.9	58	0.3%	-2.5%	1	.
CC1=C(C(=O)NCCN2CCN(C)CC2)C2(CCC(C)CC2)OC1=O (configuration not stated)	-1.4%	-1.7	87	0.7%	3.4%	1.1	i
CCOC(=O)c1cncc(C(=O)O)c1	-0.4%	-0.4	54	0.0%	3.9%	0.9	i
COc1ccccc1-c1nnc2n1N=C(c1ccc(O)c(O)c1)CS2	8.7%	1.1	89	0.3%	-2.2%	0.3	i
Cc1ccc(C)c(N(CC(=O)Nc2cc(Cl)ccc2Oc2ccccc2)S(C)(=O)=O)c1	6.9%	6.1	49	0.0%	-1.1%	1.1	i
O=C(N/N=C/c1ccco1)c1ccncc1	-0.4%	1.3	88	0.0%	5.2%	1.1	i
CC(C)(C)c1ccc(C(=O)N2CCC(C(=O)NCCC3=CCCCC3)CC2)cc1	-0.7%	1.9	44	-0.1%	5.8%	1.1	i
CCOC(=O)CN1NC2(CCC(C(C)(C)C)CC2)NC1=S (configuration not stated)	-1.0%	-1.6	58	-0.2%	1.7%	1	i
Clc1ccc(-c2nnc(-c3ccco3)o2)cc1	-2.0%	-0.2	48	-0.1%	-1.2%	1	i
Cc1cc(NC(=O)c2cccc(F)c2)no1	2.6%	-1.1	47	-0.2%	0.5%	1.1	.
Cn1nc(C(F)(F)F)c(C(=O)Nc2cccc(Cl)c2)c1Cl	1.6%	-2.6	89	0.2%	0.7%	1.1	i
N#CC1=C(N)SC(N)=C(C#N)C1c1cccc(O)c1	2.3%	-0.7	47	0.1%	5.1%	1.1	i
Cc1cc(/C=C(\C#N)C(=O)Nc2ccccc2)c(C)n1-c1cccnc1	2.4%	0.8	74	1.2%	-1.0%	1	i
COc1ccc(C2=NOC(C(=O)NC(C)(C)C)C2)cc1 (configuration not stated)	-1.1%	1.7	67	-0.1%	-3.6%	1.1	i
COc1ccc2nc(Sc3c([N+](=O)[O-])nc(C)n3Cc3ccccc3)[nH]c2c1	-0.9%	3.5	81	-0.1%	1.5%	1	i
O=[N+]([O-])c1ccc(-c2nc(-c3cccs3)c(-c3cccs3)[nH]2)cc1	-2.8%	-5.9	81	5.6%	5.5%	0.8	i
Cn1c(CN2CCOCC2)nnc1SCC(N)=O	1.5%	-2.7	76	-0.1%	1.7%	1	i
O=C(NCC1CCCO1)c1cccc(F)c1 (configuration not stated)	-0.9%	0.7	43	-0.1%	-0.2%	1.1	i
COC(=O)c1ccc(COc2ccc(/C=C(\C#N)c3nc4ccccc4[nH]3)cc2OC)o1	7.7%	10	56	0.9%	-1.5%	1.1	i
FC(F)(F)c1nc(-c2cccnc2)ncc1-c1nnnn1-c1ccccc1	-1.0%	2.1	82	0.3%	3.2%	1	i
CC(=O)NCCn1c(SCc2ccc(C)cc2)nc2ccccc2c1=O	-0.9%	2.9	71	-0.1%	-1.2%	1.1	i
C=CCn1c(SCC(=O)N2CC(=O)Nc3ccccc32)nc2scc(-c3ccccc3)c2c1=O	1.3%	0.2	82	0.4%	-0.5%	1.2	i
CC1CCN(C(=O)C(NS(=O)(=O)c2cccc3nsnc23)c2ccccc2)CC1 (configuration not stated)	-0.5%	1.0	95	-0.1%	1.5%	1.1	i
O=C(CC1c2ccccc2Oc2ccccc21)N1CCN(c2ccccn2)CC1	-0.8%	2.4	40	0.0%	4.3%	1.1	i
CCOc1ccc(/C=N/NC(=O)COc2ccccc2-c2ccccc2)cc1	-0.4%	0.7	73	0.0%	0.3%	0.9	i
O=C(O)/C=C1\NC(=O)c2ccccc21	-2.2%	-0.6	59	-0.1%	3.2%	1.1	i
CCN1C(=O)CC(NNC(=O)c2ccc(Cl)cc2)C1=O (configuration not stated)	3.1%	1.5	78	-0.1%	0.7%	1	i
COc1ccc2[nH]c3nc(SCC(=O)NNC(=O)c4ccc(OC)c(OC)c4)nnc3c2c1	4.7%	0.4	72	-0.1%	2.9%	2.2	i
CCn1nnnc1SCC(=O)NC1CCCC1	-0.8%	-0.4	43	-0.1%	2.2%	1.1	i
CC(C)C12CCC(C(=O)O)C(C1)C(=O)O2 (configuration not stated)	-1.8%	-1.1	39	0.2%	-5.6%	1.1	i
CC1CC(C)CN(Cc2nc(N)nc(Nc3ccccc3)n2)C1 (configuration not stated)	0.3%	-1.3	23	-0.1%	-0.1%	1	i
CCOC(=O)c1cc2c(=O)n3cccc(C)c3nc2n(Cc2ccco2)c1=NC(=O)c1ccccc1	-0.3%	13	80	0.3%	1.8%	1.1	i
CC(C)CN(CC(C)C)S(=O)(=O)N1CCC(C(=O)NCc2ccc(F)cc2)CC1	1.7%	-0.2	48	0.0%	-1.5%	1.1	i
Cc1cc(C)c2c(c1)[C@@H]1C=CC[C@@H]1[C@H](c1ccc(S(=O)(=O)N3CCOCC3)cc1)N2	-1.8%	.	.	-0.3%	1.3%	1.1	i
CCOc1c2ccc(C(=O)NCc3ccco3)cc2nn1CCOC	-0.7%	-0.5	91	0.0%	-1.4%	1.1	i
COc1ccc(NC(=O)CSc2ncnc3c2cnn3Cc2ccccc2)cc1	1.4%	7.7	56	0.0%	-1.4%	1.1	i
COc1c(F)c(F)c(C(=O)O)c(Nc2ccc(C)cc2)c1F	6.3%	0.4	45	-0.1%	6.3%	1	i
Cc1nn(CCOc2ccccc2)c(=O)n1-c1ccc(F)cc1	1.3%	-1.2	83	-0.1%	3.4%	1.1	i
Cc1cc(Br)ccc1NCc1ccccn1	-2.3%	-1.4	55	0.3%	3.4%	1	i
CCCC(=O)NC(Nc1cccc(C(F)(F)F)c1)C(Cl)(Cl)Cl (configuration not stated)	-1.9%	2.4	45	-0.3%	1.7%	1.1	i
CN(C)S(=O)(=O)Oc1ccsc1C(=O)Nc1ccc(Cl)c(Cl)c1	-5.4%	1.0	78	-0.1%	2.9%	1	i
O=C(CN(c1ccccc1)S(=O)(=O)c1ccccc1)NCCSCc1ccco1	2.8%	-0.3	68	-0.1%	7.3%	1	i
COc1ccc(-n2cnnc2SCC(=O)Nc2ccc(N3CCOCC3)cc2)cc1	-0.4%	1.1	44	-0.1%	3.3%	1.1	i
O=C(Nc1ccc(-c2cn3ccccc3n2)cc1)c1ccc(Cl)cc1	-1.6%	0.2	44	-0.1%	3.6%	0.9	i
CCOc1ccc(-c2c[n+](=O)c3c(n2[O-])CCCC3)c(OCC)c1	0.3%	0.1	66	-0.1%	-0.9%	1.1	i
CCOc1ccc(NC(=O)C(C)Oc2ccccc2C(=O)Nc2cccc(Cl)c2Cl)cc1 (configuration not stated)	-1.5%	0.9	58	-0.1%	-0.4%	1	i
COc1ccc(C(=O)Nc2cc(Cl)ccc2OC(=O)c2ccc(OC)cc2)cc1	0.9%	0.8	53	-0.1%	13%	1	i
CCOc1c2ccc(C(=O)NCc3cc(C(F)(F)F)cc(C(F)(F)F)c3)cc2nn1CCOC	0.4%	0.3	101	0.2%	-0.4%	1	i
Nc1nc(-c2ccco2)nn1C(=O)c1ccc(Cl)cc1	-0.8%	1.3	43	-0.1%	2.5%	1	.
CCN(CC)c1ccc2c(Cl)c(Br)c(=O)oc2c1	3.4%	-3.9	77	-0.2%	-1.9%	0.9	i
O=C(Nc1cccc(C(=O)N2CCOCC2)c1)c1ccccc1	-0.6%	-0.2	85	-0.1%	0.8%	1.1	i
OCCNC1=NCCN1	-0.1%	-0.8	52	0.3%	4.8%	1.1	i
CCC(C)NC(=O)C1CCN(S(=O)(=O)c2cccnc2)CC1 (configuration not stated)	-3.7%	0.5	41	-0.1%	6.5%	1.1	i
Cc1cc(C)n(-c2nc(-c3ccc(Cl)c(Cl)c3)cs2)n1	-0.7%	-1.8	85	-0.1%	3.2%	1	i
Cc1cc(C)c2c(N)c(C(=O)c3ccccc3)oc2n1	-3.5%	-1.8	52	0.5%	3.0%	1	i

The list is partial; rates above refer to the full screens.
